Assay outcomes (PubChem)
MbtI inh: blocks the Mycobacterium tuberculosis siderophore enzyme MbtI; 0.89% of 100,000 active; P9WFX0; purified MbtI enzyme, fluorescence intensity read-out; inhibition, %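 (about 17 µg/mL by stock and volumes)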;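 active = above 50% in both replicates, above 80% if mildly self-fluorescent; inactive = the rest, strongly fluorescent compounds included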;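 also: 0% = mean of negative and 100% = mean of positive controls; one replicate is shown; some compounds called inactive have numbers as strong as hits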
Target sequence (P9WFX0 whole entry, looked up): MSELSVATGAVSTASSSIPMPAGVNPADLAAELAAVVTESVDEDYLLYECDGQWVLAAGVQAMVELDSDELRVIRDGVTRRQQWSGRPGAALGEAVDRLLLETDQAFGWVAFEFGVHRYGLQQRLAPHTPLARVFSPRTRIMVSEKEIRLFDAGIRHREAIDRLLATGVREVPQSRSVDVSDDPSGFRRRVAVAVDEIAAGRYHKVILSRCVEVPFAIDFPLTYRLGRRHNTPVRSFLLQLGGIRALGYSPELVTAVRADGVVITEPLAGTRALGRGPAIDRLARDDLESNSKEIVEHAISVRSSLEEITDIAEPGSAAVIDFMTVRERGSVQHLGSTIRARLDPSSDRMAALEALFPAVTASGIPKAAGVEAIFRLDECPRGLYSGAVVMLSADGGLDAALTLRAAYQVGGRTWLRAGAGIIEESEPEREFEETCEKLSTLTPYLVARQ
PV pol inh: poliovirus RNA polymerase inhibition; P03300; poliovirus polymerase elongation, fluorescence polarization; stronger effect = lower value; % elongation, % (compound at 16.7 µg/mL); 0.66% of 150,000 active; AID 588519; in the data active = % elongation below about 90%; also: some results filed as inactive read as strong as hits
MenB inh: inhibitors of Mycobacterium tuberculosis MenB enzyme. P9WNP5. MenB enzyme assay, absorbance read-out; some hits fall short of the stated cut. inhibition, %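 (about 12 µg/mL by stock and volumes)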. 0.43% of 100,000 active. AID 540299;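 active = mean of two replicates above 30%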;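 also: 0% = no compound and 100% = wells with inactive enzyme; the first replicate is given; strong numbers were not always called active; inactives centre near -10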
Target sequence (P9WNP5 whole entry, looked up): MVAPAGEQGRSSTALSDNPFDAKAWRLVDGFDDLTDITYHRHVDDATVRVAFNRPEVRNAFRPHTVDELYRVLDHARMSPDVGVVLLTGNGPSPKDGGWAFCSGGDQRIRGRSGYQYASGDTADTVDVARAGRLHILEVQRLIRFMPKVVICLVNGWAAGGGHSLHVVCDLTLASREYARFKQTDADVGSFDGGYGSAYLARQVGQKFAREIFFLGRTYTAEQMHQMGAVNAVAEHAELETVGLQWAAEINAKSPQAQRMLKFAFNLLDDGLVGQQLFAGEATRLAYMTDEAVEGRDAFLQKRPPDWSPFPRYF
PV pol inh intensity: also measured in PV pol inh; calls as there; % elongation; measured here: total intensity read-out; formula for this scale not given here;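 total fluorescence in place of polarization; lower means less elongation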
* = called active by the depositor; . = no result given; & = joins results of further samples.

SMILES	MbtI inh	PV pol inh	PV pol inh intensity	MenB inh
Cc1[nH]nc(N)c1C1(O)C(=O)Nc2c(Cl)cc(Cl)cc21 (configuration not stated)	-21	102	102	.
N#CC(C#N)=Cc1ccc(Oc2ccccc2)nc1	-8	97	93	-14
COc1ccc(-c2cc(-c3ccccc3)nc(SCC(N)=NC#N)c2C#N)cc1	.	101	98	-15
CCOC(=O)c1cc2ccccc2nc1N	84	101	102	-28
CCNc1nc(NCC)n2c(=S)[nH]nc2n1	2	101	102	-1
CCC(C)NS(=O)(=O)c1ccc(F)c(OC)c1 (configuration not stated)	6	101	100	-3
Cc1ccc(-n2nnnc2-c2cnn(-c3ccccc3)c2C)cc1	-15	102	86	10
COc1cccc(NC(=O)C2c3ccccc3C(=O)N3CCc4ccccc4C23)c1 (configuration not stated)	-6	100	99	-14
CS(=O)(=NS(=O)(=O)c1cc(S(=O)(=O)c2ccccc2)cs1)c1ccccc1 (configuration not stated)	6	102	102	11
Cc1ccc(OCC(O)CNc2ccc(Br)c(C(F)(F)F)c2)cc1C (configuration not stated)	-7	105	110	-6
Cc1ccc(C(C)C)c(OCCn2c(CCNC(=O)c3ccco3)nc3ccccc32)c1	2	103	99	-7
CCn1c(C)cc(/C=C2\C(=O)NC(=O)N(c3ccc(OC)cc3)C2=O)c1C	-9	103	107	-184
CCOC(=O)N1CCC(n2c(SCc3ccc(F)cc3Cl)nc3ccsc3c2=O)CC1	13	103	105	3
O=C(CNC(=O)c1ccc(Br)o1)Nc1ccc(Br)c(C(F)(F)F)c1	-8	101	108	-22
O=C(c1cccn2c(=O)c3cc4ccccc4cc3nc12)N1CCN(Cc2ccc3c(c2)OCO3)CC1	-24	73	202	-5
CCc1ccccc1Nc1nc(N)nc(CN2C(=O)NC3(CCCCCC3)C2=O)n1	4	102	104	-8
CCc1nnsc1C(=O)Nc1c(C(=O)Nc2ccccc2)oc2ccccc12	-7	104	106	-30
CC1CCN(C(=O)Cn2cc(C=C3C(=O)N(C)C(=O)N(C)C3=O)c3ccccc32)CC1	-4	105	99	-19
COC1=C/C(=C/c2c(N)n3c(SC(C)C)nsc3nc2=O)C=CC1=O	-2	141	150	-106
Cc1ccc(OC(C)C(=O)N2CC(=O)Nc3ccccc32)c(C)c1 (configuration not stated)	-9	105	102	-48
COc1ccc(C(=O)Nc2nnc(C3=COCCO3)o2)cc1	11	102	100	-7
CCOC(=O)c1c(CNC(C)C)oc2ccc(OC)cc12	.	98	110	-7
CN1C(=O)NC(c2ccc(O)cc2)C2=C1CN(CCO)C2=O (configuration not stated)	.	105	105	-23
CCC(C)[C@H]1O[C@]2(C=C[C@@H]1C)C[C@@H]1C[C@@H](C/C=C(\C)[C@@H](OC3C[C@H](OC)C(O[C@H]4C[C@H](OC)[C@@H](O)[C@H](C)O4)[C@H](C)O3)[C@@H](C)/C=C/C=C3\CO[C@@H]4[C@H](O)C(C)=C[C@@H](C(=O)O1)[C@]34O)O2 (some centres not stated)	-18	104	101	4
CN(C)N=Nc1ccc(Oc2ccccc2)cc1	2	107	100	-14
NNC(=O)c1ccccc1OCc1ccc(Cl)cc1	-9	104	109	-12
O=C1c2ccccc2-c2nnc(-c3cccs3)cc21	-6	96	101	-110
CC1CCCC(C)N1CCCNC(=O)NCc1noc2ccccc12 (configuration not stated)	-9	103	106	-8
O=c1[nH]c2ccccc2s1	9&14	101&101	96&101	-1&5
O=c1[nH]c2ccccc2nc1/C=C(\O)c1cccc2ccccc12	-2	103	107	-7
COc1c(O[C@@H]2O[C@H](CO)[C@@H](O)[C@H](O)[C@H]2O)cc2c(c1OC)-c1ccc(SC)c(=O)cc1C(NC(C)=O)CC2 (some centres not stated)	-5	102	101	-3
COc1ccc(C)cc1N(C)C(=O)c1cc2c(=O)[nH]c3ccc(C)cc3c2s1	17	101	104	-17
COc1ccc(Br)cc1CNC(=O)C1CCCN(S(C)(=O)=O)C1 (configuration not stated)	6	104	104	-16
COc1cc(SC)ccc1C(=O)Nc1ccc(S(=O)(=O)N(C)C)cc1	0	102	105	11
CC1=C(C(=O)N2CCN(Cc3ccccc3)CC2)C2(CCCCC2)OC1=O	-1	100	104	-9
COc1ccc(C(=O)/C=C/Nc2ccc(S(=O)(=O)Nc3cnc4ccccc4n3)cc2)cc1	7	101	98	0
c1ccc(N2CCN(Cc3nnnn3Cc3ccc4c(c3)OCO4)CC2)cc1	-6	100	102	-8
CSC(SC)=C(C#N)C(=O)c1cccc(C(F)(F)F)c1	51	95	89	9
NNc1ccc(Br)cc1	.	106	105	22
COC(=O)c1sc2nc3ccccc3cc2c1N	1	90	134	-1
COc1cccc2c1c(NC(=O)C1CCN(C(=O)OCc3ccccc3)CC1)nn2C	-8	99	100	-4
CCN(CC)Cc1nc2sc(C)c(C)c2c(=S)[nH]1	80*	101	99	-73
CCOC(=O)CCCn1c(C)nc(=O)c(-c2ccccc2)c1C	-7	104	107	5
O=C(NCc1ccccc1)c1cccnc1NCc1ccccc1	103	97	106	0
O=C(OCc1cc(=O)n2ccsc2n1)c1ccccc1NCCO	-19	101	112	-17
COc1cc(-c2cn[nH]c2N)cc(OC)c1OC	11	100	102	-10
Cc1ccc2[nH]c3c(c2c1)CCCC3Nc1ccc(Cl)cc1 (configuration not stated)	-2	103	105	5
CN(C)CCC=C1c2ccccc2CCc2ccccc21	-11&-10	101&100	100&102	-9&15
Cc1nnc(-c2ccccn2)[nH]c1=O	0	104	106	-2
CC1CCCCN1C(=O)c1cc2ccccc2cc1O (configuration not stated)	-9	107	101	-22

Following part
SMILES	MbtI inh	PV pol inh	PV pol inh intensity	MenB inh
CCCN(Cc1nnc(-c2ccco2)o1)C(=O)C1CCN(c2ncc(C(F)(F)F)cc2Cl)CC1	13	106	109	-112
Nc1ccc2c(c1)C(=O)N(CC1CCCO1)C2=O (configuration not stated)	-37	98	104	-54
O=c1c(Oc2ccccc2F)coc2cc(O)ccc12	2	101	96	.
CCCOC(=O)c1cc(-c2ccc(/C=C3\C(=O)N(CCO)C(=O)C(C#N)=C3C)o2)ccc1Cl	36	101	97	3
CCOC(=O)N1CCC(NC(=O)c2sc3nc4n(c(=O)c3c2C)CCCC4)CC1	14	102	98	10
O=C1NC(=O)C(=CC2CC=CCC2)C(=O)N1 (configuration not stated)	-5	97	91	-7
O=C(c1cc2nc(-c3ccco3)cc(C(F)(F)F)n2n1)N(Cc1ccccc1)Cc1ccccc1	.	106	106	-5
O=S(=O)(/C=C/c1ccccc1)N1CCN(C(=S)NCC2CCCO2)CC1 (configuration not stated)	2	103	111	-4
O=C(O)CSc1nnnn1C1CCCCC1	-6	102	101	-28
Cc1noc(C)c1CSc1nc2sc(C)c(C)c2c(=O)n1C1CCCC1	-1	103	102	0
COc1ccc(Nc2nnc(SCC#N)s2)cc1	12	121	120	-13
CCN(CC)C(=S)SCc1nc(N)nc(Nc2ccccc2OC)n1	2	100	101	-7
CCN1CCN(c2cc3c(cc2F)c(=O)c(S(=O)(=O)c2ccc(OC)cc2)cn3C)CC1	97	102	103	-13
OCc1cn(CC(O)Cn2cnc3ccccc32)c2ccccc12 (configuration not stated)	.	102	101	-22
COc1ccccc1NS(=O)(=O)c1ccc2oc(SCC(=O)N3CC(C)OC(C)C3)nc2c1 (configuration not stated)	3	99	96	-29
Clc1ccc(-c2nc(C=Nc3ccccc3)c3ccccn23)cc1	4	104	105	-22
O=C(Nc1ccccc1)C1CCCCN1S(=O)(=O)c1ccccc1 (configuration not stated)	3	93	90	-47
C=C(C)Cc1c(C)nc(-c2ccc(Cl)cc2)nc1OC(=S)N(CC)CC	-6	108	103	-7
COC(=O)COc1ccccc1C(=O)OC	4	99	103	10
CC(C)CC(=O)N1CCN(Cc2ccccc2)CC1	2	99	105	12
O=C(C1COc2ccccc2O1)N(Cc1ccc2c(c1)OCO2)C1CCCC1 (configuration not stated)	-5	100	94	-30
CN(Cc1ccccc1)S(=O)(=O)c1ccc(NC(=O)c2ccco2)cc1	2	99	103	25
Cc1ccc2c(CNCc3ccccc3)c(C(=O)O)[nH]c2c1	-41	102	103	14
COc1nc(Nc2ccc(C)cc2)nc(N2CCC(C)CC2)n1	-4	101	102	-11
Cc1ccccc1NC(=O)c1ccccc1NC(=O)c1ccccc1	.	102	110	-15
CS/C(=N/S(=O)(=O)c1ccccc1)N1CCN(c2c(C#N)cccc2C#N)CC1	-1	101	96	10
CCCCSC1=C(C#N)C(=O)NC(C(C)C)S1 (configuration not stated)	-7	100	101	-4
CCN1C(=O)CS/C1=N\S(=O)(=O)c1ccccc1	-88	102	95	-70
Cc1ccc(-c2nc(C#N)c(N(C)C)o2)cc1	.	109	102	0
Cc1nn(-c2ccccc2)c2sc(C(=O)NN=C3CCCC3)cc12	8	102	104	-42
CN(c1ccccc1)S(=O)(=O)c1ccc2c3c(cccc13)C(=O)N2	5	103	102	-20
COc1ccc(Cl)cc1-n1c(SCc2cccc(Cl)c2)nnc1-c1cc2occc2n1C	-3	104	98	-37
CC1CC(C)(C)OC(C2CC=CCC2)O1 (configuration not stated)	9	100	101	7
O=C(NCC1CCCO1)c1cc2sccc2n1Cc1ccc(F)cc1 (configuration not stated)	-4	106	101	-54
CCC(C)NC(=O)c1ccc2ccccc2c1 (configuration not stated)	46	100	102	-18
O=C(COC(=O)Cn1cnc2ccccc21)Nc1ccccc1	19	105	101	-6
CC1(C)COC(N(C(=O)NC2CCCCC2)c2cccc(Cl)c2)=N1	-3	100	102	-10
O=C1OC(CC(=O)N2CCN(Cc3ccc4c(c3)OCO4)CC2)c2ccccc21 (configuration not stated)	11	102	101	-22
COc1ccc(-c2nnc(SCC(=O)NCc3ccc(OC)c(OC)c3)n2N)cc1	-8	103	97	-33
COC(=O)CCn1nnc(-c2cccc(C)c2)n1	-10	103	103	-39
O=C(CCNc1nc(-c2ccccc2)nc2ccccc12)N1CCCC1	25	98	96	-18
Cc1ccc(NC(=O)OCc2cccs2)cc1	2	.	.	-23
CSc1cccc(NC(=O)CCS(=O)(=O)c2ccc3c(c2)CCN3C(=O)C2CC2)c1	-3	99	104	4
CCCCn1c(=O)c(C(=O)NC)c(O)c2ccccc21	-12	100	102	-6
CCc1cccc(C)c1-n1c(C)cc(/C=C2\C(=O)NC(=S)N(c3ccccc3F)C2=O)c1C	-1	101	99	-4
CC(CCc1ccccc1)NC(=O)CN1CCN(Cc2ccccc2)C1=O (configuration not stated)	2	97	101	-22
CCN(C(=O)Cn1cc(C(F)(F)F)ccc1=O)C1=CCCC1	4	98	103	5
